Bioassay records deposited in PubChem by Broad Institute.
NOMO-1 viab = STK33 inhibitor candidate reducing NOMO-1 cell viability; NOMO-1 AML viability, CellTiter-Glo luminescence, 72 h; inhibition, % (test concentration not listed); hit rate 7.5% among 37,000; AID 2330;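 active = most replicates above 80%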;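 note: wells of about 30 µL received 25 nL stock; 0% = median of vehicle wells and 100% = reference inhibitor level; the first replicate is given; inactives centre near 10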
The depositor's hits bear a star. Not all compounds are listed; the hit share may differ from the screen's.

SMILES	NOMO-1 viab
C[C@@H]1CN([C@@H](C)CO)C(=O)c2cccc(NC(=O)Nc3ccc4c(c3)OCO4)c2O[C@H]1CN(C)S(=O)(=O)c1cn(C)cn1	18.9
C[C@H](CO)N1C[C@H](C)[C@H](CN(C)S(=O)(=O)c2cccs2)Oc2ccc(NS(=O)(=O)c3cccs3)cc2C1=O	29.5
O=C(O)C1Cc2ccccc2C1	0.3
C[C@@H]1CN([C@@H](C)CO)C(=O)c2cccc(NC(=O)NC3CCCCC3)c2O[C@H]1CN(C)S(C)(=O)=O	6.1
COc1ccc(OC)c(NC(=O)COc2ccc3c(-c4ccccc4)cc(=O)oc3c2)c1	-7.8
C[C@@H]1CN([C@@H](C)CO)C(=O)c2cccc(NS(C)(=O)=O)c2O[C@@H]1CN(C)S(=O)(=O)c1ccc(F)cc1	24.2
c1cncc(-c2nn3c(C4COc5ccccc5O4)nnc3s2)c1 (stereo unspecified)	22.1
CNC[C@H]1Oc2ccc(NC(=O)c3ccncc3)cc2CC(=O)N([C@@H](C)CO)C[C@@H]1C	2.2
O=C(CC1(O)C(=O)N(Cc2ccc(Cl)cc2)c2ccc(Cl)cc21)c1ccc2c(c1)OCCO2 (stereo unspecified)	129.4*
Cc1ccc(C)c(NC(=O)C(C)n2nc(C)c([N+](=O)[O-])c2C)c1 (stereo unspecified)	25.2
O=C(CN1C(=O)C2C3C=CC(C4CC34)C2C1=O)Nc1ccc(Oc2ccccc2)cc1 (stereo unspecified)	27.1
C[C@@H]1CN([C@H](C)CO)C(=O)Cc2cc(NS(=O)(=O)c3ccc(F)cc3)ccc2O[C@@H]1CN(C)CC1CC1	12.4
CNC[C@@H]1Oc2ccc(NC(=O)CCCN(C)C)cc2C(=O)N([C@@H](C)CO)C[C@@H]1C	3.0
C[C@H]1CN([C@@H](C)CO)C(=O)c2cc(NC(=O)Nc3ccc4c(c3)OCO4)ccc2O[C@@H]1CN(C)Cc1ccc(-c2ccccc2)cc1	111.8*
CCN(CC(=O)Nc1cccc([N+](=O)[O-])c1)S(=O)(=O)c1ccc(F)cc1	-14.6
CCN(CC(=O)Nc1ccc(I)cc1)S(=O)(=O)c1ccc(C)cc1	-9.6
CN(C)C=Nc1nonc1-c1ccccc1	-8.6
C[C@H]1CN([C@@H](C)CO)C(=O)Cc2cc(NC(=O)Nc3ccc(F)cc3)ccc2O[C@H]1CN(C)S(=O)(=O)c1ccc(Cl)cc1	114.4*
COc1ccc(CN(C)C[C@H]2Oc3ccc(NC(=O)CCN4CCOCC4)cc3CC(=O)N([C@@H](C)CO)C[C@@H]2C)cc1	-25.4
C[C@H](CO)N1C[C@H](C)[C@H](CN(C)Cc2ccc3c(c2)OCO3)Oc2ccc(NC(=O)Nc3ccc4c(c3)OCO4)cc2CC1=O	40.0
CC1(C(=O)NCCCn2ccnc2)CC1(Cl)Cl (stereo unspecified)	-9.6
O=C(COc1ccccc1Cl)Nc1cccc(NC(=O)c2ccco2)c1	-8.4
COC(=O)c1c(NC(=O)CC2NCCNC2=O)sc2c1CCCC2 (stereo unspecified)	27.2
C[C@H](CO)N1C[C@H](C)[C@@H](CN(C)C(=O)NC2CCCCC2)Oc2ccc(NS(=O)(=O)c3ccccc3)cc2C1=O	6.0
CNC(=O)c1cccc2cccc(Br)c12	-4.6

Continued:
SMILES	NOMO-1 viab
COc1cc(O)c(C(=O)/C=C/c2ccc(O)c(OC)c2)c(OC)c1	74.3
C[C@@H]1CN([C@@H](C)CO)C(=O)c2cccc(NS(=O)(=O)c3ccccc3)c2O[C@@H]1CN(C)C(=O)Nc1ccc(C(F)(F)F)cc1	54.3
COc1ccc(NC(=O)N(C)C[C@H]2Oc3ccc(NC(=O)Cc4cn(C)c5ccccc45)cc3C(=O)N([C@@H](C)CO)C[C@H]2C)cc1	5.8
COc1ccc(OC)c(S(=O)(=O)NCC2CCCO2)c1 (stereo unspecified)	11.3
O=C(CSc1nnc(-c2ccccc2O)n1-c1ccccc1)Nc1ccc(N2CCOCC2)cc1	25.9
Cc1ccc(S(=O)(=O)N(C)C[C@@H]2Oc3ccc(NS(=O)(=O)c4cccs4)cc3C(=O)N([C@H](C)CO)C[C@@H]2C)cc1	12.1
CN(CC(=O)Nc1ccccc1-c1ccccc1)S(=O)(=O)c1ccc(Br)cc1	29.0
C[C@H]1CN([C@@H](C)CO)C(=O)c2cc(NC(=O)CCN3CCOCC3)ccc2O[C@H]1CN(C)C(=O)NC1CCCCC1	-3.9
COc1ccc(S(=O)(=O)N(C)CC(=O)Nc2ccccc2F)cc1C	31.9
O=C(COc1ccccc1O)N1CCCC1	-16.7
C[C@@H]1CN([C@@H](C)CO)C(=O)c2cccc(NC(=O)C3CCOCC3)c2O[C@H]1CN(C)Cc1ccncc1	-10.5
C[C@H](CO)N1C[C@H](C)[C@H](CN(C)S(=O)(=O)c2ccc(Cl)cc2)Oc2c(NC(=O)Nc3ccccc3)cccc2C1=O	42.0
O=[N+]([O-])c1ccc(S(=O)(=O)NCc2cccnc2)cc1	-4.0
Cc1cc([N+](=O)[O-])ccc1NC(=O)CSc1nccc(=O)[nH]1	12.2
O=C1CC(c2ccccc2)C(=O)N1c1cc(Cl)cc(Cl)c1 (stereo unspecified)	-3.4
CCOc1ccc(NC(=O)C(C)Sc2nc3ccccc3s2)cc1 (stereo unspecified)	10.1
O=c1cc(-c2ccccc2)oc2cc(O)cc(O)c12	4.5
COc1ccc(NC(=O)N(C)C[C@@H]2Oc3ccc(NC(=O)CCCCCC(=O)Nc4ccccc4N)cc3CC(=O)N([C@@H](C)CO)C[C@@H]2C)cc1	22.0
Cc1cc(C(=O)Nc2cccc3c2O[C@@H](CN(C)S(=O)(=O)c2c(C)noc2C)[C@@H](C)CN([C@@H](C)CO)C3=O)n(C)n1	-19.0
C[C@H](CO)N1C[C@H](C)[C@@H](CN(C)S(=O)(=O)c2cccs2)Oc2ccc(NC(=O)Nc3ccc4c(c3)OCO4)cc2C1=O	15.0
O=[N+]([O-])c1ccc(S(=O)(=O)CC(CN2CCOCC2)N2CCOCC2)cc1 (stereo unspecified)	101.5*
C[C@@H]1CN([C@@H](C)CO)C(=O)Cc2cc(NC(=O)CCC(F)(F)F)ccc2O[C@@H]1CN(C)Cc1ccncc1	21.9
Cn1c(SCC(=O)c2ccc(F)cc2)nnc1-c1cccnc1	10.9
Cn1nccc1C(=O)Nc1ccc(Cl)cc1	22.7
CC(=O)O[C@H]1[C@H](Oc2cc(O)cc(O)c2C(=O)c2cccc(O)c2)O[C@H](CO)[C@@H](OC(=O)c2ccccc2)[C@@H]1O	-0.2

The results go on.
SMILES	NOMO-1 viab
Cc1noc(C)c1S(=O)(=O)N(C)C[C@H]1Oc2ccc(NS(C)(=O)=O)cc2CC(=O)N([C@@H](C)CO)C[C@H]1C	3.3
C[C@H](CO)N1C[C@H](C)[C@H](CN(C)C(=O)NC2CCCCC2)Oc2c(NC(=O)NC3CCCCC3)cccc2C1=O	32.2
O=C(COc1ccccc1Cl)Nc1ccc2oc(-c3ccccc3Br)nc2c1	33.1
CCOC(=O)c1c(NC(=O)CSc2nccc(C)n2)sc(C)c1C	18.3
COc1ccc(NC(=O)N(C)C[C@@H]2Oc3ccc(NC(=O)NC4CCCCC4)cc3C(=O)N([C@H](C)CO)C[C@H]2C)cc1	5.2
CC(=O)Nc1ccc(NC(=O)C(C)n2nc(C)c([N+](=O)[O-])c2C)cc1 (stereo unspecified)	-6.1
Cc1noc(C)c1NC(=O)Nc1ccc2c(c1)CC(=O)N([C@@H](C)CO)C[C@H](C)[C@H](CN(C)C(=O)Nc1cccc3ccccc13)O2	12.5
CC(C)[C@H](NC(=O)OCc1ccccc1)C(=O)N[C@H](C=O)Cc1ccccc1	22.3
COc1ccc(CO[C@H]2O[C@H](CO)[C@@H](O)[C@H](O)[C@H]2NC(C)=O)c2cc(C)oc12	-4.5
C[C@@H]1CN([C@@H](C)CO)C(=O)Cc2cc(NC(=O)Nc3cccc4ccccc34)ccc2O[C@@H]1CN(C)Cc1ccc(C(=O)O)cc1	-13.9
COc1ccccc1Nc1ncnc2c1cnn2Cc1ccccc1	-25.8
COc1ccc(CN(C)C[C@H]2Oc3ccc(NC(=O)Nc4ccccc4)cc3C(=O)N([C@H](C)CO)C[C@@H]2C)cc1	14.1
C[C@@H]1CN([C@@H](C)CO)C(=O)c2cc(NC(=O)Cn3cnnn3)ccc2O[C@H]1CN(C)Cc1ccc(Oc2ccccc2)cc1	-2.3
COc1ccc(N(CC(=O)Nc2cccc(SC)c2)S(C)(=O)=O)cc1Cl	14.1
COc1ccc(NC(=O)Nc2ccc3c(c2)C(=O)N([C@@H](C)CO)C[C@H](C)[C@@H](CN(C)Cc2ccc(-c4ccccc4)cc2)O3)cc1	81.9*
Cc1c(Cl)cccc1NC(=O)CN(c1ccc(F)cc1)S(C)(=O)=O	9.9
Cc1noc(C)c1NC(=O)N(C)C[C@H]1Oc2ccc(NC(=O)Nc3ccc(F)cc3)cc2CC(=O)N([C@@H](C)CO)C[C@H]1C	-12.5
C[C@@H]1CN([C@H](C)CO)C(=O)Cc2cc(NC(=O)Nc3ccc(F)cc3)ccc2O[C@@H]1CN(C)Cc1ccc(-c2ccccc2)cc1	49.6
Cc1ccc(-c2c[n+](=O)c3c(n2[O-])CCC3)cc1	32.6
C[C@@H]1CN([C@@H](C)CO)C(=O)c2cc(N(C)C)ccc2O[C@@H]1CN(C)Cc1ccc(Oc2ccccc2)cc1	89.8*
CCc1ccc2c(c1)C(O)(CC(=O)c1ccco1)C(=O)N2 (stereo unspecified)	-6.0
COC(=O)c1c(NC(=S)Nc2ccn(C)n2)sc(C(=O)N(C)C)c1C	26.4
COc1ccc(CCNc2nc(N3CCOCC3)nc(N3CCOCC3)n2)cc1OC	-3.4
Cc1ccc(S(=O)(=O)N(C)C[C@@H]2Oc3c(NS(=O)(=O)c4ccccc4)cccc3C(=O)N([C@H](C)CO)C[C@@H]2C)cc1	15.5
CC(C)(C)c1ccc(=O)[nH]n1	-18.1

Three entries from above, arranged by molar mass, low to high.
SMILES	NOMO-1 viab
C[C@H](CO)N1C[C@H](C)[C@H](CN(C)C(=O)NC2CCCCC2)Oc2c(NC(=O)NC3CCCCC3)cccc2C1=O	32.2
C[C@H](CO)N1C[C@H](C)[C@@H](CN(C)C(=O)NC2CCCCC2)Oc2ccc(NS(=O)(=O)c3ccccc3)cc2C1=O	6.0
COc1ccc(NC(=O)Nc2ccc3c(c2)C(=O)N([C@@H](C)CO)C[C@H](C)[C@@H](CN(C)Cc2ccc(-c4ccccc4)cc2)O3)cc1	81.9*

Structures shown so far containing a nitro group on carbon, in the order listed:
SMILES	NOMO-1 viab
Cc1ccc(C)c(NC(=O)C(C)n2nc(C)c([N+](=O)[O-])c2C)c1 (stereo unspecified)	25.2
CCN(CC(=O)Nc1cccc([N+](=O)[O-])c1)S(=O)(=O)c1ccc(F)cc1	-14.6
O=[N+]([O-])c1ccc(S(=O)(=O)NCc2cccnc2)cc1	-4.0
Cc1cc([N+](=O)[O-])ccc1NC(=O)CSc1nccc(=O)[nH]1	12.2
O=[N+]([O-])c1ccc(S(=O)(=O)CC(CN2CCOCC2)N2CCOCC2)cc1 (stereo unspecified)	101.5*
CC(=O)Nc1ccc(NC(=O)C(C)n2nc(C)c([N+](=O)[O-])c2C)cc1 (stereo unspecified)	-6.1

More structures follow:
SMILES	NOMO-1 viab
COc1ccc(NC(=O)Nc2ccc3c(c2)C(=O)N([C@H](C)CO)C[C@H](C)[C@H](CN(C)S(=O)(=O)c2cccs2)O3)cc1	27.7
Cc1ccc(S(=O)(=O)Nc2ccc3c(c2)C(=O)N([C@@H](C)CO)C[C@H](C)[C@@H](CN(C)S(=O)(=O)c2ccc(F)cc2)O3)cc1	4.8
Cc1ccc(S(=O)(=O)N(C)C[C@@H]2OCCCC[C@@H](C)Oc3ccc(NC(=O)CCCN(C)C)cc3C(=O)N([C@H](C)CO)C[C@@H]2C)cc1	10.8
Cc1ccccc1OCC(=O)NC(=S)Nc1ccccc1-c1nc2ccccc2s1	3.9
C[C@@H]1CN([C@H](C)CO)C(=O)c2cccc(NC(=O)Nc3ccc(C(F)(F)F)cc3)c2O[C@@H]1CN(C)Cc1ccc(Cl)c(Cl)c1	76.2
C[C@@H]1CN([C@H](C)CO)C(=O)c2cc(NC(=O)Nc3ccc(F)cc3)ccc2O[C@H]1CN(C)S(=O)(=O)c1ccccc1	17.0
C[C@H]1CN([C@@H](C)CO)C(=O)c2cc(NC(=O)Nc3ccccc3)ccc2O[C@@H]1CN(C)C(=O)Nc1ccc2c(c1)OCO2	-5.1
Clc1cccc(Cl)c1Cn1nnc(N2CCCC2)n1	28.4
CC(=O)Nc1cccc2ncccc12	12.5
C[C@H](CO)N1C[C@H](C)[C@H](CN(C)Cc2ccc(-c3ccccc3)cc2)Oc2ccc(NC(=O)Nc3ccc(C(F)(F)F)cc3)cc2CC1=O	126.3*
C[C@H]1CN([C@@H](C)CO)C(=O)Cc2cc(NS(=O)(=O)c3ccc(F)cc3)ccc2O[C@H]1CN(C)CC1CC1	-5.2
O=S1(=O)CCC(N=Cc2ccc(-c3cccc(C(F)(F)F)c3)o2)C1 (stereo unspecified)	16.5
C[C@H]1CN([C@@H](C)CO)C(=O)c2cc(NC(=O)Nc3ccccc3)ccc2O[C@H]1CN(C)C(=O)Nc1cccc2ccccc12	8.0
C[C@H]1CN([C@@H](C)CO)C(=O)c2cc(NS(C)(=O)=O)ccc2O[C@@H]1CN(C)Cc1ccc(C(=O)O)cc1	24.7
COc1cc(C(=O)Nc2cccc(-c3nc4ncccc4o3)c2)cc(OC)c1OC	34.3
Cc1c(NC(=O)CN2C(=O)c3ccccc3S2(=O)=O)c(=O)n(-c2ccccc2)n1C	7.4
Cc1cccc(-n2c(SCC(=O)O)nnc2-c2cccs2)c1C	5.5
Cc1ccc(S(=O)(=O)N(C)C[C@H]2Oc3ccc(NS(=O)(=O)c4c(C)noc4C)cc3CC(=O)N([C@@H](C)CO)C[C@@H]2C)cc1	-3.7
